GIV-Gai inh = inhibitors of GIV peptide binding to Galpha-i3, primary screen, biochemical, fluorescence polarization, FITC-GIV GBA peptide, rat Galphai3; Guanine nucleotide-binding protein G(i) subunit alpha-3 (Rattus norvegicus), P08753; 90 min; active compounds read low; scaled: aluminum fluoride 0%, vehicle 100%; percent of control (FP), % (concentration not given with the values); actives 0.42% (n = 210,000); AID 1224905, 2016;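 active = replicate mean at 85% of control or lower, very high polarization wells dropped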;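 also: wells of about 15 µL received 100 nL stock; the first replicate is given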
Target sequence (P08753 whole entry, looked up): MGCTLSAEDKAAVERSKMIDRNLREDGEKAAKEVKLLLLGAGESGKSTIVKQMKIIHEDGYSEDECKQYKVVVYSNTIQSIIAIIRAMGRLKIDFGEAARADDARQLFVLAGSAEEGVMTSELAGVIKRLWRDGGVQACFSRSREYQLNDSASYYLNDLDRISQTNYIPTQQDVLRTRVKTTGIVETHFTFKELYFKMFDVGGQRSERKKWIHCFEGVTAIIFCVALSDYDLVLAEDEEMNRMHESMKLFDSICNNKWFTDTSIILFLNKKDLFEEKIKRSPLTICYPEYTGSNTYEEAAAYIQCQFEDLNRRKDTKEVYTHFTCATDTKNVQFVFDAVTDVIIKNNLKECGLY
Sa growth 42C = S. aureus growth inhibition at 42 and 30 °C, primary screen, LtaS inhibitor project, RN4220, two temperatures; relative growth, % (test concentration not listed); actives 0.53% (n = 170,000); OD600, 20 h, 42 °C; active compounds read low;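 active = growth at 42 °C up to 50% and 20 or more points under that at 30 °C, or under 10% at both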;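 also: 300 nL library stock went into each well; scaled to the means of positive and negative controls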
HCMV UL50-53 inh = inhibitors of HCMV UL50-UL53 interaction, biochemical, HTRF. HCMV UL50-UL53 nuclear egress complex (human cytomegalovirus). normalized percent inhibition. inhibition, % (concentration not given with the values). actives 0.15% (n = 190,000). AID 1918969, 2023;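 active = both replicates at 50% or more, plus weaker picks with an unusually low signal ratio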;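 also: stock transfer was 100 nL into about 20 µL; 0% = negative control wells and 100% = wells with untagged competitor protein; inactives centre near -12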
Sa growth 42C second temp = recorded beside Sa growth 42C, whose call it bears; relative growth, %; measured here: growth at 30 °C;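 optical density after 20 h as mean of two plates; 100% = untreated growth and lower means inhibition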
An asterisk follows results filed as active; . = no result given; & = joins results of further samples. A portion of the library; the hit share may differ from the screen's.

entry	SMILES	HCMV UL50-53 inh	Sa growth 42C	GIV-Gai inh	Sa growth 42C second temp
1	O=P1(N2CCCCCC2)CC=CC1	6	89	.	88
2	Cc1ccccc1OCCCn1cc(C(=O)C2CC2)c2ccccc21	.	103	101	82
3	Cn1cc(C2=CCN(CC(=O)NCCC3=CCCCC3)CC2)cn1	-47	.	105	.
4	CCC(=O)c1nc2ccccc2c(=O)n1-c1ccccc1C	-27	91	.	93
5	Nc1ccc2c(c1)Cc1ccccc1-2	-13	97	104	85
6	C[C@]12N[C@H](Cc3ccccc31)c1ccccc12	-13&-11&7	.	103	.
7	CCOC(=O)c1c(C)n(C(C)C)c2ccc(OC(=O)c3ccccc3)cc12	.	111	101	91
8	CC(C)CC(NP(=O)(O)O[C@@H]1O[C@@H](C)[C@H](O)[C@@H](O)[C@H]1O)C(=O)NC(Cc1c[nH]c2ccccc12)C(=O)O (some centres undefined)	-31	.	100	.
9	CN1CCN(C(=O)COc2cc(=O)n(C)c3ccccc23)CC1	.	111	100	98
10	O=C1CCCN1CC#CCN1CCCC1	-31&4&-25	90	101&98	83
11	CN1CCN(c2c(N)cccc2Cl)CC1	8	123	103	96
12	NC(N)=NOCC[C@H](N)C(=O)O	-14&7	.	103	.
13	O=C1CC(c2ccc(Br)cc2)c2c(c3ccccc3oc2=O)O1 (centres undefined)	.	90	107	99
14	Cc1ccc(N=P(N(C)C)(N(C)C)C(C)(C)C)c(C)c1	-7	97	.	95
15	CCC(=O)c1cn(Cc2ccccc2C#N)c2ccccc12	-5	94	.	86

entry	SMILES	HCMV UL50-53 inh	Sa growth 42C	GIV-Gai inh	Sa growth 42C second temp
16	Cc1ccc2c(c1)N(CCC(=O)N1CCC3(CC1)OCCO3)C(=O)CO2	-20	93	102	87
17	CCN(CC)P1(=S)OC(c2ccc(I)cc2)=Nc2c1c(C)nn2CCC#N (centres undefined)	-9	83	.	93
18	Cc1ccccc1S(=O)(=O)Cc1ccc(C(=O)N2CCC3(CC2)OCCO3)o1	3	110	101	90
19	CC12CC[C@H]3[C@@H](CCC4(O)C[C@H](O)CCC34/C=N/NC(=O)c3ccccc3O)C1(O)CCC2C1=CC(=O)OC1 (some centres undefined)	-19	104	108	91
20	COc1ccc(C(=O)N2CCCC2=O)cc1	-38&-57&2&-25	95&90	109&103	96&85
21	CC1=C(C(=O)OC(C)(C)C)C2(C(=O)Nc3ccccc32)C(C(=O)OC(C)C)=C(N)O1 (centres undefined)	-19	.	106	.
22	OC(CN(Cc1ccccc1)Cc1ccccc1)Cn1c2ccccc2c2ccccc21 (centres undefined)	5	104	.	72
23	CN1C(=O)C(=Cc2cccc(OCCOc3ccc([N+](=O)[O-])cc3)c2)C(=O)N(C)C1=O	-11	.	102	.
24	CCC1c2cccn2-c2ccccc2CN1C(=O)NC(C)C (centres undefined)	-21	.	101	.
25	Oc1ccc(Br)cc1CN1CCN(Cc2ccccc2F)CC1	-14	107	102	87
26	CNC(=O)O/N=C/c1ccc(F)c(Cl)c1	-24	104	114	84
27	CN1CCN(c2c(N)c(=O)oc3ccccc23)CC1	-44	118	104	110
28	CC1=NN(c2ccccc2)C(=O)/C1=C\c1c(O)[nH]c(=O)[nH]c1=O	-41	95	105	100
29	CN(C)C1=Nc2ccccc2P1(O)=S (centres undefined)	-15	86	.	96
30	Brc1ccc2[nH]cc(/C=N/N3CCCCC3)c2c1	2	123	.	82

entry	SMILES	HCMV UL50-53 inh	Sa growth 42C	GIV-Gai inh	Sa growth 42C second temp
31	Cc1ccccc1N1C(=O)NC(=O)/C(=C\c2cc(Br)c(N3CCOCC3)o2)C1=O	-66	.	210	.
32	COCCN1C(=O)C(C(=O)O)C2CC1(C)Oc1ccccc12 (centres undefined)	-22	74	99	86
33	c1ccc(CN2CCNCC2)nc1	-28	88	101	97
34	CCn1c(C)cc2c(c1=O)C1(C(=O)Nc3ccccc31)C(C(=O)OC)=C(N)O2 (centres undefined)	-38	85	101	85
35	c1coc(CN2CCNCC2)c1	-11	113	98	79
36	O=C1NC(=O)C(=CN2CCc3ccccc32)C(=O)N1	0	97	101	94
37	Cc1ccc(NS(=O)(=O)c2ccc(OCC(=O)N3CCN(C)CC3)cc2)cc1	15	107	103	106
38	CC(OC(=O)c1cn(C)c2ccccc12)C(=O)N(C)c1ccccc1 (centres undefined)	-18	115	.	99
39	CCOP(C)(=O)CN1CCOCC1 (centres undefined)	-7	97	101	108
40	COc1ccc(OCC(=O)N2CCN(Cc3ccc(SC)cc3)CC2)cc1	19	107	102	105
41	CC(=O)NCC1CCCN2CCCCC12 (centres undefined)	4	115	.	92
42	S=C=NCCc1ccccc1	18	83	.	63
43	Cc1nn(Cc2ccccc2)c(C)c1C(=O)OCC(=O)N1CCCCC1C (centres undefined)	-12	107	.	105
44	CC12CCC(O)CC1=CCC1C2CCC2(C)C(O)/C(=C/c3ccc(F)cc3)CC12 (centres undefined)	-9	98	.	88
45	N#CCc1ccc(N)cc1	-36	98	.	100

entry	SMILES	HCMV UL50-53 inh	Sa growth 42C	GIV-Gai inh	Sa growth 42C second temp
46	COC(=O)C(O)(c1ccc(C)o1)C(F)(F)F (centres undefined)	5	50	.	45
47	c1cncc(CNC2CCCCC2)c1	-11	91	97	92
48	Cc1ccc(Cn2cccc(C(=O)Nc3ccon3)c2=O)cc1	-34	96	104	88
49	CCN1CCN(c2ncc(Br)cn2)CC1	-12	85	102	91
50	CN1C(=O)CCS(=O)(=O)C1c1ccc(Cl)cc1 (centres undefined)	-9&-3&-15&-23	.	93	.
51	O=C(Cc1ccccc1)OCCN1CCCCC1	-3	127	.	90
52	C1=C(c2ccccc2)CCN(Cn2cnc3ccccc32)C1	-47	93	.	87
53	Cc1nc2scc(C)n2c1C=C(C#N)C#N	-16	96	.	88
54	CCN1CCN(c2ncnc3ccc(Br)cc23)CC1	-9	100	101	86
55	C=CP(=O)(O)c1ccccc1	-6	119	99	113
56	CCOC(=O)C1(c2ccccc2)CCN(CCC(C#N)(c2ccccc2)c2ccccc2)CC1	-77	88	.	71
57	S=C1NC2=C(CCc3ccccc32)C(c2cccnc2)N1 (centres undefined)	-64	87	104	73
58	Oc1ccc2c3c1O[C@H]1c4[nH]c5c(c4C[C@@]4(O)[C@@H](C2)N(CC2CC2)CC[C@]314)C[C@@]1(O)[C@H]2Cc3ccc(O)c4c3[C@@]1(CCN2CC1CC1)[C@H]5O4	-6&-11	.	95	.
59	O=C(Cn1cc(C(=O)c2ccccc2)c2ccccc21)Nc1ccc(Br)cc1	-9	100	108	88
60	CCc1ccc(-n2c(N3CCC(C)CC3)nc3ccccc3c2=O)cc1	-9	86	99&105	86

entry	SMILES	HCMV UL50-53 inh	Sa growth 42C	GIV-Gai inh	Sa growth 42C second temp
61	COc1cccc(N2CCNCC2)c1	18	82	101	92
62	C#C[C@@H]1CC2C3CCC4=C[C@@H](OC(C)=O)CCC4C3CC[C@]2(C)[C@H]1OC(C)=O (some centres undefined)	-46	79	.	68
63	CN(C)C(=O)Oc1nc(-c2cccs2)cc(C(F)(F)F)c1C#N	-7	83	102	76
64	COc1ccc(C(O)CN2CC=C(c3ccc(N(C)C)cc3)CC2)cc1 (centres undefined)	-77	100	.	87
65	CCCN(CCC)[C@@H]1CCc2cccc(O)c2C1	-9	.	103	.
66	c1ccc(CCNCc2ccccc2)cc1	-10	106	.	84
67	C=CCOC(=O)C1=C(C)OC(N)=C(C(=O)OCC)C12C(=O)Nc1ccccc12 (centres undefined)	-11	.	100	.
68	O=S1(=O)N(Cc2ccc(F)cc2)CCCN1Cc1ccccc1F	-1	.	109	.
69	COC(=O)c1cc(CCl)oc1C	16	94	.	104
70	CSc1nc2ccccc2c(=O)n1-c1ccccc1	-7	92	.	101
71	CCCCCn1c(=O)c(C(=O)Nc2ccccc2S(N)(=O)=O)c(O)c2ccccc21	4	91	100	96
72	O=C(Cn1ncc2c([nH]c3ccccc32)c1=O)NCCCN1CCN(c2ccccc2)CC1	.	143	102	95
73	CCN(CC)S(=O)(=O)c1cc(C(=O)Oc2cccc3cccnc23)ccc1Br	-16	.	108	.
74	NC(Cc1ccccc1)c1nc2ccccc2[nH]1 (centres undefined)	-9	84	.	80
75	CCN1CCN(C(=O)COc2cccc(Br)c2)CC1	-22	91	.	79

entry	SMILES	HCMV UL50-53 inh	Sa growth 42C	GIV-Gai inh	Sa growth 42C second temp
76	O=C(Cc1ccc(S(=O)(=O)N2CCCC2)s1)N1CCN(Cc2ccccc2)CC1	-6	95	.	97
77	CC(C)COP(C)(=O)C(N)=O (centres undefined)	-4	85	.	96
78	Cn1c(O)c(C=Nc2ccccc2)c(=O)n(C)c1=O	1	117	99	98
79	C[C@]12CCC(=O)C(O)=C1CC[C@@H]1[C@@H]2CC[C@]2(C)C(=O)CC[C@@H]12	-41	97	102	94
80	Cc1cccc(N2CCNCC2C)c1 (centres undefined)	1	83	101	93
81	COc1ccc(C(O)(C(=O)O)c2ccccc2)cc1 (centres undefined)	-8	98	102	94
82	NC(Cc1ccccc1)Cc1ccccc1	-15	100	100	89
83	O=[P+](c1ccccc1)c1ccccc1	-9	100	.	85
84	NC1=C(C(=O)OCc2ccccc2)C2(C(=O)Nc3ccc(Br)cc32)C2=C(CCCC2=O)O1 (centres undefined)	-18	.	98	.
85	COC(=O)c1c(C)n(CCC2=CCCCC2)c2ccc(O)cc12	-14	102	109	103
86	C=CCN1C(=O)NC(=O)/C(=C/c2ccc(-c3ccc(Cl)c(C(=O)O)c3)o2)C1=O	-34	.	107	.
87	Cc1cccc([C@H]2N(c3ccccn3)C(=O)[C@@H]3CCCN32)c1	-38	.	99	.
88	CC12CC(c3ccccc3O1)C(C(=O)OCc1ccccc1)C(=O)N2 (centres undefined)	-9	85	102	84
89	CCOC(=O)c1cc(CC)sc1/N=C/C1C(=O)NC(=S)NC1=O	.	101	-36*	84

13 compounds already listed, arranged by heavy-atom count, falling:
entry	SMILES	HCMV UL50-53 inh	Sa growth 42C	GIV-Gai inh	Sa growth 42C second temp
72	O=C(Cn1ncc2c([nH]c3ccccc32)c1=O)NCCCN1CCN(c2ccccc2)CC1	.	143	102	95
84	NC1=C(C(=O)OCc2ccccc2)C2(C(=O)Nc3ccc(Br)cc32)C2=C(CCCC2=O)O1 (centres undefined)	-18	.	98	.
71	CCCCCn1c(=O)c(C(=O)Nc2ccccc2S(N)(=O)=O)c(O)c2ccccc21	4	91	100	96
76	O=C(Cc1ccc(S(=O)(=O)N2CCCC2)s1)N1CCN(Cc2ccccc2)CC1	-6	95	.	97
73	CCN(CC)S(=O)(=O)c1cc(C(=O)Oc2cccc3cccnc23)ccc1Br	-16	.	108	.
88	CC12CC(c3ccccc3O1)C(C(=O)OCc1ccccc1)C(=O)N2 (centres undefined)	-9	85	102	84
89	CCOC(=O)c1cc(CC)sc1/N=C/C1C(=O)NC(=S)NC1=O	.	101	-36*	84
87	Cc1cccc([C@H]2N(c3ccccn3)C(=O)[C@@H]3CCCN32)c1	-38	.	99	.
70	CSc1nc2ccccc2c(=O)n1-c1ccccc1	-7	92	.	101
74	NC(Cc1ccccc1)c1nc2ccccc2[nH]1 (centres undefined)	-9	84	.	80
82	NC(Cc1ccccc1)Cc1ccccc1	-15	100	100	89
83	O=[P+](c1ccccc1)c1ccccc1	-9	100	.	85
77	CC(C)COP(C)(=O)C(N)=O (centres undefined)	-4	85	.	96

Bioassay records from PubChem BioAssay.
